Assay outcomes deposited in PubChem by several laboratories.
Env fusion inh: inhibitors of HIV Env-mediated cell fusion. HeLa-JRFL Env/CEM21 cell fusion, luciferase. inhibition, % at 12.3 µM. actives 1.1% (n = 360,000);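 active = mean replicate inhibition score of at least 50 and every replicate individually at or above 50; inconclusive = only one of the two criteria met; inactive = mean below 50 and not all replicates reaching 50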;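 also: 0% = plate neutral controls and 100% = maraviroc near 300 nM; one replicate is shown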
CSC inhib: cancer stem cell inhibition; cancer stem cell-like cells viability, luminescence; inhibition, % at 7.5 µM; actives 1.1% (n = 300,000); AID 2717;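 active = mean at 75% or more and at least half the replicates too; inconclusive = mean and replicates disagree; tested in HMLE shEcad cells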;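 also: 0% = median of negative and 100% = median of positive control wells; the first replicate is given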
eIF4H inh: inhibitors of RNA binding by human eIF4H; actives 0.94% (n = 290,000); eIF4H fluorescence polarization binding assay; inhibition, % at 35 µM; AID 2012; Q15056;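 active = 50% or more with normal probe brightness, or confirmed in later tests; inconclusive = above 50% with abnormal brightness, or retests that disagree; inactive = below 50% or failed in later tests; about a fifth of its hits are not listed in these tables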;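 also: calls also rest on retests at 20 µM and on dose response follow-up; 0% = protein and probe with vehicle and 100% = probe without protein; strong numbers were not always called active; many hits fall short of the cut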
MT1-MMP act inh: MT1-MMP (human) activation inhibition; HT1080 RFP-PRO-GFP cells, GFP/RFP ratio fluorescence, overnight; percent of plate control window, DMSO zero; P50281; actives 0.061% (n = 360,000); GFP/RFP ratio change, % at 20 µM;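 active = GFP/RFP ratio change of at least 30% with cell ATP level not reduced by more than half and red fluorescence within 50% of control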; also: strong numbers were not always called active
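Assay system: RFP-PRO-GFP reporter HT1080 cells; read-out basis: GFP/RFP fluorescence ratio; benchmarks: DMSO wells and RFP-L50D-GFP cells; doses: 20 µM single dose, 1% DMSO; schedule: overnight cell settling, then overnight compound exposure, 37 °C, 5% CO2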
UUG fidelity: alters start codon recognition fidelity in yeast | S. cerevisiae UUG-firefly luciferase reporter, luminescence/redox ratio | activity score, % at 18.7 µM | actives 0.13% (n = 350,000) | AID 602363;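 active = replicate mean at a twofold rise or more, about +100% in these data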;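 also: firefly luciferase made from a UUG start codon reports start codon fidelity; reporter light over untreated wells divided by growth signal over untreated wells; some hits fall short of that in this replicate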
PABP polyA inh: blocks human PABP binding to poly(A) RNA; P11940; fluorescence polarization; actives 1% (n = 290,000); inhibition, % at 35 µM;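 active = 50% or more with normal probe brightness, or confirmed in later tests; inconclusive = above 50% with abnormal brightness, or retests that disagree; inactive = below 50% or failed in later tests; about a fifth of its hits are not listed in these tables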;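 also: calls also rest on retests at 20 µM and on dose response follow-up; controls were probe without protein and protein plus probe with vehicle; some compounds called inactive have numbers as strong as hits; many hits fall short of the cut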
Target sequence (P11940 whole entry, looked up): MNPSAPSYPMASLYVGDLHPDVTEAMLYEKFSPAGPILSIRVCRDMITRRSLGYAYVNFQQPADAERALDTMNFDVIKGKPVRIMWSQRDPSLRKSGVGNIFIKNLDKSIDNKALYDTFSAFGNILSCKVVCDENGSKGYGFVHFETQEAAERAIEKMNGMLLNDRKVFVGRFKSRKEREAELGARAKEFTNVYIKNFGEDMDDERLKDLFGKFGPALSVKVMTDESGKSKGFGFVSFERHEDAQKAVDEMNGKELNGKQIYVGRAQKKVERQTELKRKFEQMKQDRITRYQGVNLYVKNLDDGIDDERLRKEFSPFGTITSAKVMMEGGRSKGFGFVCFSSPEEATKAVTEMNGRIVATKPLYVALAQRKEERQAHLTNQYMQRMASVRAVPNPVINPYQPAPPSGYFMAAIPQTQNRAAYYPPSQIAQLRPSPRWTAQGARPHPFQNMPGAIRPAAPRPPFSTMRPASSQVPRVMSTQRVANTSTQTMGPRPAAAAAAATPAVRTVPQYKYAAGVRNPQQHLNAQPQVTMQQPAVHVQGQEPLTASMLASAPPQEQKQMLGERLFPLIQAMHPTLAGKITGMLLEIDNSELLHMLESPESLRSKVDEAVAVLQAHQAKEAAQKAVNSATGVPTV
Rce1 inh: blocks yeast Ras-converting enzyme; AID 2563; yeast membranes, quenched prenylated peptide cleavage fluorescence; calls only; actives 0.27% (n = 290,000); Q03530;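 active = fall in fluorescence gain of 50% or more versus controls, with final raw signal at or below 3038400; inconclusive = same 50% fall but final raw signal above 3038400; inactive = fall in fluorescence gain under 50%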;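 also: plate controls were neutral control wells for no effect and wells lacking membranes for full effect; tested at 10 µM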
Target sequence (Q03530 whole entry, looked up): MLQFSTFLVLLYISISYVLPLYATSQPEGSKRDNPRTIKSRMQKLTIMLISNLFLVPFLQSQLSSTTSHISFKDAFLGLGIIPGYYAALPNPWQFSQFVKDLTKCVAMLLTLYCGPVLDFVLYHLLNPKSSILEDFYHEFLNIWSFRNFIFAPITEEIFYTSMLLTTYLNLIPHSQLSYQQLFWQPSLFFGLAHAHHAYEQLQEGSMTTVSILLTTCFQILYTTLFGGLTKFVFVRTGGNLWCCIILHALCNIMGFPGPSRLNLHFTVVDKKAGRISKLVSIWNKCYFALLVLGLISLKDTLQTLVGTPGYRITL
eIF4H inh retest: recorded beside eIF4H inh, whose call it bears; inhibition, %; compound at 20 µM; confirmation average;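 mean of two retest wells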
PABP polyA inh retest: recorded beside PABP polyA inh, whose call it bears; inhibition, %; compound at 20 µM; confirmation repeats;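 mean of two retest wells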
MT1-MMP act inh RFP: recorded beside MT1-MMP act inh, whose call it bears; RFP signal change, %; measured here: RFP expression control read;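 0 = vehicle wells; hits needed this value within 50% of zero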
An asterisk follows results filed as active; i = inactive; ? = inconclusive; nt = not tested or not shown; + = active, no number; & = joins results of further samples; ! = not confirmed by another sample.

SMILES | Env fusion inh | CSC inhib | eIF4H inh | MT1-MMP act inh | MT1-MMP act inh RFP | UUG fidelity | PABP polyA inh | Rce1 inh | others
Cc1ccc(-n2c(CNc3ccc(F)cc3)nnc2SCC(=O)N2CCOCC2)cc1 | nt | -7 | -5 | 8 | 4 | -8 | -3 | i
COCCSc1ccccc1C(=O)Nc1cc(C)cc(C)c1 | 13 | 3 | -5 | -1 | 2 | -12 | -6 | i
CCOC(=O)N1CCN(CC(=O)Nc2nc3ccc(OC)cc3s2)CC1 | 9 | -6 | 3 | -2 | -3 | -14 | 13 | i
CCc1oc2c(C)c(O)ccc2c(=O)c1-c1ccc2ccccc2n1 | 14 | -2 | -3 | -5 | -5 | -17 | -5 | i
CCOCCOC(=O)c1cccc(NC(=O)OCC)c1 | -81 | 6 | 1 | -2 | -2 | -5 | 3 | i
CCn1nnc(-c2ccccc2NS(=O)(=O)c2ccc(S(=O)(=O)N3CCCCCC3)cc2)n1 | nt | -9 | -5 | -2 | 1 | 6 | 2 | i
COc1cc2[nH]c(=O)n(CCCCCC(=O)N3CCN(c4ccccn4)CC3)c(=O)c2cc1OC | 17 | -8 | 2 | 8 | 7 | -8 | 7 | i
CC1=NN(S(=O)(=O)c2ccc(Cl)cc2Cl)C(=O)c2ccccc2O1 | 17 | 7 | -4 | -2 | -3 | -9 | -12 | i
CNC(=O)c1nc(C)c(C2(C)CC(c3cccc([N+](=O)[O-])c3)=NO2)s1 (stereo not drawn) | -106 | 6 | -2 | 3 | -3 | -5 | -8 | i
CS(=O)(=O)N1CCN(S(=O)(=O)c2ccccc2[N+](=O)[O-])CC1 | 6 | -5 | -8 | 1 | -3 | nt | 1 | i
O=C1OC(Nc2ccc(F)cc2F)c2ccccc21 (stereo not drawn) | nt | -12 | -7 | -3 | -5 | -10 | -4 | i
Cc1cc(OC(=O)c2c(F)cc(F)cc2F)nc(C)n1 | 0 | -7 | 0 | 0 | 7 | nt | -9 | i
CCOc1ccc(C(=O)O/N=C(\N)c2ccccn2)cc1OCC | -95 | -11 | -1 | -7 | -6 | -26 | 7 | i
Cc1cc(C)n(C(C)Sc2ccccc2)n1 (stereo not drawn) | 13 | -11 | nt | 0 | 1 | -10 | nt | i
CCOC(=O)C1NN=C(C(=O)c2ccccc2)C1c1ccccc1 (stereo not drawn) | nt | 11 | 5 | 3 | 1 | nt | 4 | i
COc1cccc(-n2c(CN3CCN(Cc4ccccc4)CC3)nc3ccc([N+](=O)[O-])cc3c2=O)c1 | -1 | 17 | 12 | nt | nt | nt | 0 | i
Cc1cnc(NC(=O)c2cncc(Br)c2)s1 | -35 | nt | -4 | -4 | 2 | nt | 1 | i
O=C1N(CN2CCOCC2)c2ccccc2C12OCC(CCl)O2 (stereo not drawn) | -1 | 1 | -3 | 2 | 4 | -7 | -6 | i
CCCc1ccc(-c2cc(N)n[nH]2)cc1 | -96 | 6 | 3 | -2 | 1 | -11 | 4 | i
CC(C)=NNc1nc2c(c(=O)[nH]c(=O)n2C)n1CCc1ccccc1 | -12 | -9 | 27 | 1 | 1 | nt | -3 | i
COC(=O)c1ccc2nc(C3CCCCC3)c(Cc3ccc(OC)cc3C)n2c1 | 1 | nt | nt | -5 | 2 | -8 | nt | nt
Cc1[nH]c2ccc(C(=O)OCC(=O)NC3(C#N)CCCCC3)cc2c1C | -2 | -3 | nt | -1 | -3 | -24 | nt | i
Cc1ccc2[nH]c(-c3cccc(F)c3)cc(=O)c2c1 | nt | 58 | 3 | 19 | 5 | -21 | 0 | i
Cn1nc(OC(=O)Nc2ccc(Cl)cc2)cc1C(F)(F)F | nt | 14 | -9 | nt | nt | nt | -12 | i
Cc1ccc(NC(=O)C(C)NC(=O)OCc2ccccc2)cc1C (stereo not drawn) | 3 | -9 | 2 | 0 | 1 | nt | 11 | i
COc1ccccc1C(=O)Nc1ccc(NC(=O)C2CCCCC2)nc1 | 6 | 0 | -2 | 5 | 1 | -15 | 10 | i
O=C(O)CC/C(=N\Nc1ccccc1[N+](=O)[O-])c1cccs1 | nt | 1 | -5 | 35* | 2.6* | -25 | 37 | i
CCOC(=O)/C(C#N)=C\C1=C(N2CCCC2)CC(C)(C)OC1 | nt | -9 | -7 | 3 | -1 | -11 | 20 | i
CCCCCCCCC(=O)N1C(C)CCC1C (stereo not drawn) | 7 | nt | nt | 2 | 0 | -16 | nt | nt
CCNC(=O)C1CCCN(C(=O)c2ccc(-c3ccccc3)cc2)CC1 (stereo not drawn) | -39 | nt | nt | -7 | -4 | -4 | nt | nt
COc1ccc(-n2nc(C(=O)NCC(=O)N(C)Cc3ccccc3)c3ccccc3c2=O)cc1 | -6 | -46 | -21 | 1 | -3 | -4 | -4 | +
O=C(CSc1nnc(-c2ccccc2)o1)Nn1cnnc1 | 12 | 2 | -6 | -2 | 4 | -17 | 9 | i
O=C(N/N=C/c1ccco1)c1cccc(S(=O)(=O)Nc2ccccc2Cl)c1 | -7 | -5 | 82 | -2 | 3 | nt | -4 | i | eIF4H inh retest=-5;PABP polyA inh retest=3
COc1ccc(/C=C/C(=O)Nc2ccc(S(=O)(=O)Nc3onc(C)c3C)cc2)cc1OC | -7 | -2 | 1 | 0 | 4 | -1 | 12 | i
O=C(CC(=O)N/N=C\c1ccc(F)cc1)NCCc1ccccc1 | -2 | nt | -8 | 5 | 2 | nt | 1 | i
C=CCC1S/C(=N/N=C/c2cccs2)NC1=O (stereo not drawn) | -13 | 1 | 4 | 3 | 1 | -16 | 21 | i
Cc1nn(S(=O)(=O)c2ccccc2)c(C)c1Sc1ccc([N+](=O)[O-])cc1 | nt | -9 | -2 | -3 | -1 | -9 | 1 | i
N/C(=N\c1nc2ccccc2o1)NC(=O)c1ccccc1 | -299 | 16 | 2 | 6 | -1 | -11 | -4 | i
CCOC(=O)c1c(C)[nH]c(C(=O)CSc2nnc(Nc3ccccc3F)s2)c1C | -27 | 10 | 6 | -7 | -5 | -11 | 8 | i
CCCn1c(=O)c(C(=O)Nc2cccc(C)n2)c(O)c2ccccc21 | -20 | 3 | -6 | 2 | -3 | -17 | 1 | i
O=C(CSc1nnc(-c2ccccc2)c(-c2ccccc2)n1)Nc1ncc(Cl)cc1Cl | 1 | 9 | -10 | 3 | 6 | nt | 3 | i
CNC(=O)CCCCC(=O)N/N=C/c1ccc(Cl)cc1Cl | 6 | -5 | 1 | -3 | -1 | -1 | 16 | i
O=C(Cn1cc(Cl)ccc1=O)c1ccc(Cl)cc1 | 10 | -14 | 3 | -2 | -2 | nt | 11 | i
Cc1cc(C)nc(NC(=O)c2cccs2)c1 | -10 | -10 | -9 | -2 | 0 | -20 | -6 | i
COc1ccc(C(OC(=O)c2ccco2)C(=O)NC2CCCCC2)cc1OC (stereo not drawn) | -13 | -6 | 4 | 2 | 5 | nt | -2 | i
O=C(CCc1ccccc1)Nc1cccc([N+](=O)[O-])c1 | 6 | -15 | -5 | 2 | 4 | 1 | 16 | i
COc1ccccc1NC(=S)N/N=C/c1cccc(C)c1 | -10 | 19 | -9 | -4 | -5 | nt | -3 | i
O=C(CS(=O)(=O)Cc1ccccc1)N1CCc2ccccc21 | -12 | 10 | -5 | -3 | -9 | 9 | -4 | i
COc1ccccc1CNC(=O)N1CCN(c2ccccc2)CC1 | 7 | 5 | -7 | 6 | 0 | 7 | -7 | i
Cc1ccc(C(=O)Nn2c(N)c(S(=O)(=O)c3ccc(C)cc3)c3nc4ccccc4nc32)cc1 | 5 | 11 | -4 | 5 | -5 | -15 | -4 | i
COc1cc(C=O)ccc1OCCCOc1ccccc1[N+](=O)[O-] | -152 | 26 | -8 | 1 | 1 | nt | -3 | i
O=C(O)CNS(=O)(=O)c1ccc2c(c1)CCCC2 | 6 | 2 | 6 | 2 | 4 | -6 | -1 | i
O=C1C(Br)=Cc2cccc3cccc1c23 | -3 | 11 | ? | 41 | 52 | -18 | ? | i
CCn1cnc2c([N+](=O)[O-])c(NS(=O)(=O)c3ccc(C)cc3)ccc21 | 2 | -22 | nt | 1 | 3 | -11 | nt | i
CN1CCN(CCCN2c3ccccc3Sc3ccc(Cl)cc32)CC1 | -84 | 94*! | -6&-18 | -5 | -3 | 1&-1 | -4&6 | i
COC(=O)C(C)Sc1nnc(Cc2cc(=O)[nH]c(=O)[nH]2)n1-c1ccc(OC)cc1 (stereo not drawn) | -14 | nt | 6 | -1 | 4 | -19 | -7 | nt
CCOc1ccccc1-n1nnnc1SC(C)C(=O)OC (stereo not drawn) | 5 | -4 | 3 | 4 | 7 | nt | -1 | i
CCCOc1cccc(C(=O)NCCCNC(=O)c2cccnc2)c1 | 11 | 1 | 5 | 5 | 0 | -10 | -1 | i
CCCCc1nnc(NC(=O)c2oc3ccccc3c2C)s1 | nt | 9 | nt | 3 | 3 | nt | nt | i
O=[N+]([O-])c1nn(-c2ccc3c(c2)OCCO3)n(O)c1=NCCC1=CCCCC1 | -60 | ? | -1 | 3 | -1 | -3 | 10 | i

In the list so far, 2 contain a cyano group:
SMILES | Env fusion inh | CSC inhib | eIF4H inh | MT1-MMP act inh | MT1-MMP act inh RFP | UUG fidelity | PABP polyA inh | Rce1 inh | others
Cc1[nH]c2ccc(C(=O)OCC(=O)NC3(C#N)CCCCC3)cc2c1C | -2 | -3 | nt | -1 | -3 | -24 | nt | i
CCOC(=O)/C(C#N)=C\C1=C(N2CCCC2)CC(C)(C)OC1 | nt | -9 | -7 | 3 | -1 | -11 | 20 | i

(next part)
SMILES | Env fusion inh | CSC inhib | eIF4H inh | MT1-MMP act inh | MT1-MMP act inh RFP | UUG fidelity | PABP polyA inh | Rce1 inh | others
CC1CC(C)CN(CCCNC(=O)CC2Oc3ccccc3NC2=O)C1 (stereo not drawn) | -5 | -11 | 12 | -2 | 3 | -18 | 2 | i
CCN(CC)c1ccc2cc(-c3nc(-c4cc5ccccc5oc4=O)cs3)c(=O)oc2c1 | -2 | nt | nt | -120 | 6 | -30 | nt | nt
CC(Oc1ccccc1)C(=O)Nc1ccc(C(N)=O)cc1 (stereo not drawn) | -24 | nt | -6 | -2 | 3 | -5 | 3 | i
O=c1oc(CCO)cc2ccccc12 | 29 | -14 | nt | 4 | 1 | -4 | nt | nt
CCN(c1ccccc1)S(=O)(=O)c1ccc(C(C(=O)OC)C(=O)OC)c([N+](=O)[O-])c1 | -2 | 2 | -2 | -1 | 2 | -17 | 5 | i
CC(C)OCCCNc1ccc(N2C(=O)CCCC2=O)cc1[N+](=O)[O-] | -3 | -10 | 0 | 6 | -4 | -11 | 3 | i
COc1cccc(C(=O)N(Cc2ccc3c(c2)OCO3)Cc2nc3ccccc3c(=O)[nH]2)c1 | nt | 0 | -5 | -5 | -2 | -3 | -6 | i
Cc1ccc(S(=O)(=O)Nc2cccc(C(=O)NCC(c3ccccc3)N(C)C)c2)cc1F (stereo not drawn) | -5 | -4 | nt | 3 | -3 | -15 | nt | i
c1c[nH]c(CN2CCN(Cc3ncc[nH]3)CC2)n1 | -10 | nt | nt | -2 | 1 | -20 | nt | nt
CN(CC(=O)Nc1cccc(S(=O)(=O)N2CCCC2)c1)CC(=O)Nc1ccc(F)c(F)c1F | 2 | nt | nt | 10 | -3 | 7 | nt | nt
CCC1=Nc2cc(C(=O)NCCCOC(C)C)ccc2Sc2ccccc21 | -96 | 7 | -16 | 0 | -4 | 12 | -8 | i
Cc1nc(SCc2c(F)cccc2Cl)n[nH]1 | 15 | -5 | -11 | -5 | 4 | -33 | -5 | i
